VDR inh = inhibitors of human vitamin D receptor; 400,000 tested, 0.93% active; Potency, µM, for inactives: max response, negative = inhibition, usual class: inhibitors; AID 504847; P11473; VDR-SRC2-3 peptide fluorescence polarization, 2 h; active means well fitted inhibition curve with a large enough effect; inconclusive means small, poorly fitted or top-dose-only effect, or another doubt; inactive means no such curve, though single readings can be large or run the other way; further: series mostly up to about 120 µM
Target sequence (P11473 whole entry, looked up): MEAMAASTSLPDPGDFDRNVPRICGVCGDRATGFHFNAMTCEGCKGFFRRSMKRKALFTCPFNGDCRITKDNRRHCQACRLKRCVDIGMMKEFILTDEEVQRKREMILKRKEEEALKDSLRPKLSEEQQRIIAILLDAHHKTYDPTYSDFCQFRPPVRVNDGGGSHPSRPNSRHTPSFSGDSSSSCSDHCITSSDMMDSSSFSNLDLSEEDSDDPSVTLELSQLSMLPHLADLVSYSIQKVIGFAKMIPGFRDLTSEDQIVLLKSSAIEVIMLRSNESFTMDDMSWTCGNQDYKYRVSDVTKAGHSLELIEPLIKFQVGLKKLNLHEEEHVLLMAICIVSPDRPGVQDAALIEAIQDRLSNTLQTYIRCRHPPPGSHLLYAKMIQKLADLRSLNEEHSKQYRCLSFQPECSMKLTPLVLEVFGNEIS
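Inhibition of the VDR/SRC2-3 peptide interaction is quantified by fluorescence polarization. Compounds (23 nl, pintool) incubate with the reagents for 2 hours at ambient room temperature.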
An asterisk follows results filed as active; ? = inconclusive; & = joins results of further samples; [ ] = dose if it differs, or a comment. On the % scale 0 is the no-effect control and ±100 the full control effect; potency means the concentration at half of the fitted maximal effect. The list is partial, so the mix of outcomes need not match the whole.

SMILES | VDR inh
Cc1ccc(-c2nc(SCC(=O)N3CCc4ccccc43)c3c(=O)n(C)c(=O)n(C)c3n2)cc1 | -5%
O=C(Nc1ccc(OCc2ccccc2)cc1)c1cccc([N+](=O)[O-])c1 | -2%
CCCCCCCCCCCC(=O)NC1CCS(=O)(=O)C1 (stereo not given) | 10%
CCn1cnc2sc(C(=O)N(Cc3ccc(N(C)C)cc3)Cc3ccco3)c(C)c2c1=O | 10%
O=C(CC1C[C@H](C(=O)N2CCCCC2)[C@@]2(CCc3ccccc3)c3[nH]c4ccccc4c3CCN2C1=O)NCc1cccc(C(F)(F)F)c1 (stereo not given in full) | -17%
CCCOc1ccc(-c2nnn(CC(=O)c3c[nH]c4ccccc34)n2)cc1 | 1%
O=S(=O)(Nc1c(O)ccc2ccccc12)c1ccccc1 | ?
CCN(CC(=O)NCc1cccs1)C(=O)Cc1ccc(Cl)c(Cl)c1 | 1%
COc1cc(OC)c(NC(=O)C(NS(=O)(=O)c2cccc3nsnc23)c2ccccc2)cc1Cl (stereo not given) | -2%
CC(=O)N1CCC2(CC1)CC(=O)c1cc(OCC(=O)NCc3ccc(C)cc3)ccc1O2 | 1%
COc1ccc(C(C)=O)cc1COC(=O)C(CO)NS(=O)(=O)c1ccc(Br)cc1 (stereo not given) | -10%
O=C(c1ccco1)N1CCN(C(c2ccccc2Cl)c2nnnn2Cc2ccco2)CC1 (stereo not given) | 0%
O=C(CN1CCOCC1)Nc1ccc2c(c1)OC(F)(F)O2 | 2%
Cn1c(-c2ccc(F)cc2)cnc1NCc1ccccc1F | -4%
CCOC(=O)NC(=O)/C(N=Nc1cc(C)cc(C)c1)=C(\C)O | -12%
FC(F)(F)c1cc(CCN2C(=S)NC[C@@H]2c2ccccc2)cc(C(F)(F)F)c1 | 18%
CCN(CC)C(C)C(=O)Nc1c2c(cc3c1CCC3)CCC2 (stereo not given) | -18%
COc1ccc(C2C(C#N)=C(N)N(c3cccnc3)C3=C2C(=O)CC(C)(C)C3)cc1OC (stereo not given) | 10%
Cn1cc(S(=O)(=O)Nc2ccc3c(c2)OCCO3)cn1 | -3%
S=C(Nc1ccccc1Cl)Nc1ccc(Cl)cc1Cl | -14%
O=c1onc2n1-c1cc(Br)ccc1OC2 | ?
CC(C)Cc1nnc(NC(=O)CSc2ccccn2)s1 | 0%
CC(C)c1ccc(NC(=O)c2ccc3oc(=O)c(S(=O)(=O)c4ccc(F)cc4)cc3c2)cc1 | 0%
Cc1ccc(CSCC(=O)N2CCN(c3cc(Cl)ccc3C)CC2)cc1 | -5%
Cc1cc(C)cc(N(CC(=O)NCc2ccc(F)cc2)C(=O)c2snc(C(N)=O)c2N)c1 | -4%
CN(C)S(=O)(=O)c1ccc(NC(=O)C2CC3C=CC2C3)cc1 (stereo not given) | 1%
NCC1CCC(N)C(O[C@@H]2C(O)[C@H](O[C@H]3OC(CO)C(O)C(N)C3O)[C@@H](N)C[C@H]2N)O1 (stereo not given in full) | 19%
Cc1onc(-c2ccccc2)c1-c1csc(COc2ccccc2)n1 | 1%
O=C(Nc1cccc(C(=O)OCc2cc(=O)n3nc(C4CC4)sc3n2)c1)c1cccc(F)c1 | 10%
O=C(c1cccc(F)c1)N1CCCC(C(=O)N2CCN(c3ccccc3)CC2)C1 (stereo not given) | 35%[activator]
Cc1c(C)n(Cc2ccccc2)c2ccc(C(=O)NCCc3ccccc3Cl)cc12 | 0%
Cc1ccc2c(c1)NC(=O)C(CC(=O)O)O2 (stereo not given) | -10%
Cc1noc(C)c1COc1cccc(C(=O)Nc2ccccc2N2CCOCC2)c1 | ?
Cc1ccccc1NC(=O)CSCn1nnc2c(=O)[nH]c(Cc3ccc(F)cc3)nc21 | 2%
C=CCn1c(SCC(=O)NCCOC)nnc1-c1cc2c(s1)CCC(CC)C2 (stereo not given) | -4%
COc1ccc(C(=O)OCC(=O)c2ccc(C3CCCCC3)cc2)cc1 | 0%
Nc1nc(-c2ccc(Cl)cc2)nn1C(=O)c1cccnc1 | 17%
COc1ccc(C=C2SC(=S)NC2=O)c(OC)c1OC | -23%
CCN(C(=O)c1cc2c(s1)-c1ccccc1OC2)c1cc(Cl)ccc1OC | -17%
COc1ccc(CN2CCNC(=O)C2CC(=O)N(C)Cc2nonc2C)c(F)c1 (stereo not given) | -5%
COc1ccc(/C=C/C(=O)Oc2ccc(/C=N/NC(=O)c3ccncc3)cc2)cc1 | -25%
Cc1ccnc(N2CCN(c3cc(C)c(C#N)c4nc5ccccc5n34)CC2)c1 | 4%
CN(C)c1ccc(C(C(=O)NC2CCCC2)N(C(=O)c2csnn2)C2CC2)cc1 (stereo not given) | -6%
CCCOc1ccc(C(=O)Nc2ccc(-c3cc4ccccc4oc3=O)c(C)c2)cc1 | -15%
O=S(=O)(Nc1cccc2c1CCCC2)c1cccc(C(F)(F)F)c1 | 18%
O=C1C2C3CCCC3=C3CCCC3C2C(=O)N1c1ccccc1 (stereo not given) | -10%
COc1cccc(-c2nc(C(N)=O)c3c(n2)n(-c2ccc4c(c2)OCO4)c(=O)n3C)c1OC | 9%
CCCCCCC(O)C/C=C/CCCCCCCC(=O)O (stereo not given) | ?
CN(c1ccc(OCC(=O)Nc2nc3ccccc3s2)cc1)S(=O)(=O)c1ccccc1 | 49%[activator]
COc1cccc(NC(=O)CN(c2cccc(C(F)(F)F)c2)S(C)(=O)=O)c1 | -11%
CCCCCCc1cc2cc(C(=O)Nc3ccccc3)c(=O)oc2cc1O | 5%
O=C(c1cc(-c2ccncc2)nc2ccccc12)N1CCN(c2ccc(N3CCOCC3)nn2)CC1 | 5%
Cc1ccc2nc(SCC(=O)Nc3cccc(Cl)c3)nc(=O)n2c1 | -6%
COc1ccc(/C=N/NC(=O)c2ccccc2OC)cc1COc1ccc(C)cc1 | -18%
CN1CCN(C(=O)C2CC(c3c(F)cccc3Cl)=NO2)CC1 (stereo not given) | 8%
COC(=O)c1ccc(C(=O)OC)c(NC(=O)Nc2ccc3c(c2)OCO3)c1 | -19%
Cc1ccc(NC(=O)/C(=C/c2cccc([N+](=O)[O-])c2)NC(=O)C2CCCCC2)cc1 | 9%
O=C(CN1C(=O)NC(c2ccccc2)(c2ccccc2)C1=O)N1CCN(c2ccc(F)cc2)CC1 | 2%
O=C(NCCCN1CCOCC1)c1cc(C(=O)C2CCCCC2)c[nH]1 | 2%
O=C(c1csnn1)N1CCC[C@@]2(CCN(Cc3cc(C(F)(F)F)cc(C(F)(F)F)c3)C2)C1 | ?

15 compounds from above, ordered by formula weight, rising.
SMILES | VDR inh
CCCCCCC(O)C/C=C/CCCCCCCC(=O)O (stereo not given) | ?
O=C1C2C3CCCC3=C3CCCC3C2C(=O)N1c1ccccc1 (stereo not given) | -10%
CN1CCN(C(=O)C2CC(c3c(F)cccc3Cl)=NO2)CC1 (stereo not given) | 8%
O=C(NCCCN1CCOCC1)c1cc(C(=O)C2CCCCC2)c[nH]1 | 2%
Cc1ccc2nc(SCC(=O)Nc3cccc(Cl)c3)nc(=O)n2c1 | -6%
CCCCCCc1cc2cc(C(=O)Nc3ccccc3)c(=O)oc2cc1O | 5%
COC(=O)c1ccc(C(=O)OC)c(NC(=O)Nc2ccc3c(c2)OCO3)c1 | -19%
Cc1ccnc(N2CCN(c3cc(C)c(C#N)c4nc5ccccc5n34)CC2)c1 | 4%
COc1ccc(/C=C/C(=O)Oc2ccc(/C=N/NC(=O)c3ccncc3)cc2)cc1 | -25%
COc1ccc(/C=N/NC(=O)c2ccccc2OC)cc1COc1ccc(C)cc1 | -18%
Cc1ccc(NC(=O)/C(=C/c2cccc([N+](=O)[O-])c2)NC(=O)C2CCCCC2)cc1 | 9%
CN(C)c1ccc(C(C(=O)NC2CCCC2)N(C(=O)c2csnn2)C2CC2)cc1 (stereo not given) | -6%
COc1cccc(-c2nc(C(N)=O)c3c(n2)n(-c2ccc4c(c2)OCO4)c(=O)n3C)c1OC | 9%
O=C(CN1C(=O)NC(c2ccccc2)(c2ccccc2)C1=O)N1CCN(c2ccc(F)cc2)CC1 | 2%
O=C(c1cc(-c2ccncc2)nc2ccccc12)N1CCN(c2ccc(N3CCOCC3)nn2)CC1 | 5%

The list goes on.
SMILES | VDR inh
Cc1sc2ncnc(SCC(=O)N3CCCCC3)c2c1C | -23%
NSc1nc(N)c2nc(-c3ccccc3)c(-c3ccccc3)nc2n1 | 8.9µM*
Cc1ccc(S(=O)(=O)N2CCN(c3nc(-c4cccs4)cc4ccccc34)CC2)cc1 | 16%
CCOc1ccccc1NC(=O)c1nnn(CC(=O)Nc2ccc(OC)c(OC)c2)c1N | -1%
COC(=O)c1onc(-c2ccccc2)c1C(=O)OC | 1%
CC1=CC(C)(C)N(C(=O)Nc2ccccc2)c2ccccc21 | -4%
CCc1ccc(-n2cc(-c3ccc(F)cc3)[n+]3c2SCCC3)cc1 | -8%
Cc1cc(C)cc(NC(=O)CSc2nnc(Cc3cccn3C)n2-c2ccc(F)cc2)c1 | -17%
O=C1Cc2cc(S(=O)(=O)N3CCNCC3)ccc2N1 | 0%
S=C1NCN(Cc2ccccc2)CN1 | -2%
Cc1c(N(C)S(=O)(=O)c2cccc(C(=O)NCC3CCCO3)c2)c(=O)n(-c2ccccc2)n1C (stereo not given) | 13%
O=C(CSc1nncc2ccccc12)N1CCOCC1 | -2%
Cc1ccn2cc(CNC(=O)c3cccs3)nc2c1 | 7%
O=C(COC(=O)CCS(=O)(=O)c1ccccc1)Nc1cc(S(=O)(=O)N2CCCCC2)ccc1Cl | -24%
Cc1cc(=O)oc2cc(OCC(=O)OCC(=O)NC(=O)NC(C)C)ccc12 | -13%
COc1ccc(-c2[nH]nc3c2C(c2ccccc2OC(=O)N2CCOCC2)C(C#N)=C(N)O3)cc1 (stereo not given) | -6%
CCOc1ccc(N(CC(=O)Nc2ccc(C)cc2)S(=O)(=O)c2c(C)noc2C)cc1 | -8%
Cc1nc(N2CCN(C(=O)c3ccco3)CC2)c2oc3ccccc3c2n1 | 2%
O=C(Nc1ccc(S(=O)(=O)N2CCCCC2)cc1)C1CCN(C(=O)c2ccco2)CC1 | 3%
CC(C)[C@H](NS(=O)(=O)c1ccccc1)C(=O)OCn1nnc2ccccc2c1=O | 0%
CC(Oc1ccc(F)cc1)C(=O)Oc1ccc(N(C)S(=O)(=O)c2ccccc2)cc1 (stereo not given) | -27%
O=C(C(=O)N1CCN(c2ccc([N+](=O)[O-])cc2)CC1)c1cn(CC(=O)N2CCOCC2)c2ccccc12 | 6%
COc1ccc(Cl)cc1C(=O)CSc1nc(N)cc(N)n1 | ?
CC(C)(C)c1ccc(-c2nc(C#N)c(NCc3cccnc3)o2)cc1 | 8%
CCCCN1C(=N)N([C@@H](C)CN2CCC[C@H]2CN2C(N)=NC[C@H]2CC(C)C)C[C@H]1[C@H](C)CC | -9%
Cc1nnc(-c2ccccc2)[nH]c1=O | 4%
CCOc1cccc(C(=O)Nc2ccncc2)c1 | 16%
Cc1ccc(NC(=O)CCNC(=O)c2ccccc2Cl)cc1S(=O)(=O)N(C)C | -6%
CCCNC(=O)c1ccc(Cl)c(Cl)c1 | -7%
COc1cc(NC(=O)c2nc3ccccc3nc2N2CCCCC2)cc(OC)c1OC | -8%
COc1cc2c(C(=O)N3CCN(C)CC3)c(CSc3ccccc3)n(C)c2cc1Br | 19%
CCOc1ccc(-n2cnnn2)cc1S(=O)(=O)N1CCCCC1 | -4%
Nc1ccccc1SCc1ccccc1 | 5%
O=C(O)CSCC(=O)NCc1ccccc1 | 8%
COC(=O)c1ccc(COC(=O)c2ccc(C)c(S(=O)(=O)N3CCCCC3)c2)cc1 | 14%
O=C(c1ccc(N2CCOCC2)c([N+](=O)[O-])c1)N1CCN(S(=O)(=O)c2cccs2)CC1 | -6%
CSc1ccccc1C(=O)N1CCC(CCC(=O)NCc2ccc(F)cc2)CC1 | -6%
O=C1c2ccc(Oc3ccc4c(c3)C(=O)N(CCCCO)C4=O)cc2C(=O)N1CCCCO | 14%
COc1ccc(C2(c3ccc(OC)cc3)NC(=O)N(CC(=O)NC(C)C)C2=O)cc1 | -15%
CC(=O)c1ccc(NC(=O)C(C)Sc2nnc(C3CC3)n2C2CC2)cc1 (stereo not given) | -10%
Cc1cc(C)cc(N2C(=O)CC(c3ccc(C(F)(F)F)cc3)C3=C2COC3=O)c1 (stereo not given) | 4%
CCOc1cccc(CNCCNC(=O)c2nonc2N)c1 | 0%&2%
O=C(NCCc1nc2ccccc2[nH]1)/C(=C/c1ccco1)NC(=O)c1ccc(Br)cc1 | -2%
COc1ccc(OCC(=O)Nc2cccc(C(=O)OCc3cc(=O)n4nc(C)sc4n3)c2)cc1 | 13%
S=C(NCCc1ccccc1)N1CCCC1 | 8%
C/C(=N\NC(=O)c1ccc(Cl)cc1)c1cccc(NC(=O)c2cccnc2)c1 | -2%
COc1ccc(CNC(=O)c2cnc3sc(N4CCCC4)nn3c2=O)cc1OC | -6%
O=C(COC(=O)c1ccc2c(c1)C(=O)N(CCc1ccccc1)C2=O)Nc1ccc(OC(F)F)cc1 | -14%
CCOC(=O)CN(C(=O)CSc1nnc(CNc2ccc(F)cc2)n1C)c1ccccc1 | 0%
CCOc1ccc(C(=O)COC(=O)c2nc3nccc(C)n3n2)cc1 | -20%
Cc1nn(C(C)C(=O)Nc2ccc(Cl)cn2)c(C)c1[N+](=O)[O-] (stereo not given) | -10%
CCOC(=O)C1CCCN(C(=O)c2ccc3c(c2)N(Cc2cccc(Cl)c2)C(=O)c2ccccc2S3(=O)=O)C1 (stereo not given) | -2%
Cc1cccc(OCCn2cc(/C=N/NC(=O)c3ccncc3)c3ccccc32)c1 | 15%
Cc1cc(OC(=O)c2ccccc2Br)c([N+](=O)[O-])c(=O)[nH]1 | 13%
Cc1ccc(C)c(CN2CCCN(Cc3ccc(F)cc3)S2(=O)=O)c1 | 12%
O=[N+]([O-])c1cc(S(=O)(=O)Nc2ccccc2)ccc1N1CCN(c2ccc(O)cc2)CC1 | -7%
CCC(=O)N1CCc2cc(CNC(=O)c3cccc(N(C)C)c3)ccc21 | 13%
C=CCNCCOCCOc1ccc(C)cc1[N+](=O)[O-] | -3%

From PubChem
